Screening results (PubChem BioAssay)
Mtb H37Rv: Confirmatory growth inhibition assay against Mycobacterium tuberculosis H37Rv, potency (AID 1949); most inactive calls were filed without a number and no value below 0 was filed; one-dose inhibition, % at 10 µg/mL; IC50 in µg/mL for titrated hits; 100,000 tested, 1.6% active;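 active means confirmed in a dose series; inconclusive means about 50% or more but not retested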;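 further: bacteria grown 7 days with compound before Alamar blue readout; 0% = untreated bacteria and 100% = reference antibiotic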
Starred values were filed as active, the others as inactive; i = inactive; ? = inconclusive.

The first two entries, to show the layout:
SMILES	Mtb H37Rv
Cc1ccc(SC(C)C(=O)NC(C(C)C)C(C)C)cc1 (stereo not drawn)	i
Cc1ccc(S(=O)(=O)N2CCCC(C(=O)Nc3ccccc3)C2)cc1 (stereo not drawn)	i

All compounds of this part (from the top)
SMILES	Mtb H37Rv
Cc1ccc(SC(C)C(=O)NC(C(C)C)C(C)C)cc1 (stereo not drawn)	i
Cc1ccc(S(=O)(=O)N2CCCC(C(=O)Nc3ccccc3)C2)cc1 (stereo not drawn)	i
Cc1cc(SCC(=O)c2ccc(Cl)cc2)nc2ccccc12	i
COc1ccccc1-c1coc2cc(OCC(=O)OC3CCCCC3)ccc2c1=O	0.24µg/mL*
Cc1nonc1OCCNC(=O)C12CC3CC(CC(C3)C1)C2	i
Cc1cc(Cl)c(OCCCN2CCCC2)c(Br)c1	i
CCOc1cc(C(=O)Nc2c(C)cccc2C)cc(OCC)c1OCC	i
CCOc1ccccc1N1CCN(C(=O)C2CCN(Cc3ccccc3)CC2)CC1	i
Cc1ccc(Cl)cc1NC(=O)CC1NC2CCCCC2NC1=O (stereo not drawn)	i
CN(Cc1ccccc1)S(=O)(=O)c1ccc2c(c1)oc(=O)n2C	i
CCc1cc2c(=O)n(-c3ccc(Cl)cc3)c(SCC(N)=O)nc2s1	1.1%
O=C(Nc1ccc2oc(-c3ccc(Cl)cc3Cl)nc2c1)c1cc(-n2cnnc2)ccc1Cl	2.5%
CC(C)(C)C(=O)Nc1ccccc1C(=O)NCc1ccco1	i
Cc1ccc(C(=O)Nc2ccc(Cl)cc2F)s1	19.0%
COc1ccc(OC)c(CN2CCN(Cc3ccc(OC)cc3OC)CC2)c1	i
COc1ccc(-c2csc(NC(=O)CCc3ccccc3)n2)cc1	i
CC(C)CNC(=O)c1ccccc1NC(=O)c1ccc(CSc2ccccc2)cc1	i
CC(C)c1ccc(OCC(=O)Nc2ccc(N3CCOCC3)cc2)cc1	i
COc1ccc(N2C(=O)CC(Nc3ccc(OC(F)(F)F)cc3)C2=O)cc1 (stereo not drawn)	i
COc1cc(C(=O)Nc2cccc(C(F)(F)F)c2)cc(OC)c1OC	i
COc1cccc(/C=C2\C(=O)N(c3ccc(S(N)(=O)=O)cc3)N=C2C)c1	6.5%
Cc1ccc(Oc2nc(C)nc3sccc23)cc1	i
Cc1ccc(C(=O)NC(=S)Nc2ccc3c4c(cccc24)CC3)c(C)c1	i
COc1cccc(N(CC(=O)Nc2cccc(C)c2)S(C)(=O)=O)c1	i
CC(C)(C)c1ccc(C(=O)Nc2ccc(NC(=O)C(=O)O)cc2)o1	i
COc1ccc(Cl)cc1N(CC(=O)N1CCc2ccccc2C1)S(=O)(=O)c1ccc(C)cc1	i
CC(=O)C1=C(C)OC(=O)C1(NC(=O)c1ccc(C)cc1)C(F)(F)F (stereo not drawn)	i
CCOC(=O)c1nc2sc3c(c2c(=O)[nH]1)CCCC3	i
CC(=O)c1ccccc1OC(=O)COc1ccc(Cl)cc1C	i
COc1ccc(/C=C(/NC(=O)c2ccc(Br)cc2)C(=O)Nc2ccc(C(=O)O)cc2)cc1	1.6%
Cc1cc(C)c(S(=O)(=O)N2CCN(C(=O)c3cccs3)CC2)c(C)c1	i
CSc1ccc(S(=O)(=O)Nc2ccccc2C(=O)NC(C)C)cc1	i
O=C(Nc1cnc2ccccc2c1)c1cccc([N+](=O)[O-])c1	i
COc1ccc(NC(=O)C(C)Sc2ccc(C)cc2)cc1OC (stereo not drawn)	3.7%
CCOC(=O)c1sc(NC(=O)CSc2nnc(-c3ccncc3)o2)nc1C	i
Cc1c(CC(=O)O)c(=O)oc2cc(OCc3ccc(F)cc3F)ccc12	i
Cc1cc(/C=C(\C#N)C(N)=O)c(C)n1-c1ccc([N+](=O)[O-])cc1	i
c1ccc(-c2cc3c4cccn4ccn3c2)cc1	i
O=C(O)c1ccc(Cl)c(NC(=S)NC(=O)c2cccc(Br)c2)c1	i
COC(=O)c1ccc(NC(=S)NCc2ccc(F)cc2)cc1	i
Cn1cccc1CNCCc1ccc(S(N)(=O)=O)cc1	i
CCOC(=O)c1ccc(NC(=O)N2CCN(c3ccc(C(C)=O)cc3)CC2)cc1	i
COc1ccc(-c2ccc(CCC(=O)O)n2-c2ccc(N(C)C)cc2)cc1	i
Cc1ccc(S(=O)(=O)Nc2cccc(C(=O)NC(C)(C)CO)c2)cc1	i
O=C1c2oc3ccc(Br)cc3c(=O)c2C(c2ccc(O)cc2)N1Cc1ccccc1 (stereo not drawn)	i
C=CCN1C2=NC(=O)CN2c2ccccc21	i
COC(=O)c1ccc2c(=O)n(CCc3ccccc3)c(=S)[nH]c2c1	i
CC(=O)Oc1nnc2ncn(-c3ccccc3)nc1-2	i
Cc1nc(NC(=O)c2c(F)c(F)c(F)c(F)c2F)sc1C	0.2%
CCn1cc(Br)c(C(=O)Nc2sc3c(c2C(N)=O)CCCC3)n1	i
c1ccc(CSc2n[nH]c3nc4ccccc4n23)cc1	?
CC(=O)c1c(C)nc(Nc2nc3ccccc3o2)nc1C	2.2%
O=C(NC(=S)Nc1ccc(-c2nc3ccccc3o2)c(O)c1)c1cncc(Br)c1	i
COc1ccc(C)cc1NC(=O)CCCOc1cccc(C)c1	i
O=C(COc1cc(O)c2c(=O)cc(-c3ccccc3)oc2c1)c1ccc(F)cc1	i
CC(C)(C)C(=O)Nc1ccc(I)cc1Cl	i
O=C1c2cccc3c(Cl)ccc(c23)C(=O)N1O	3.4%
O=C(c1ccccc1)c1nc2c(n1O)CCCCC2	i
N#C/C(=C\C=C\c1ccccc1Cl)c1nc2ccccc2[nH]1	i
Cn1cnc2cc(-c3n[nH]c(=O)c4ccccc34)ccc21	i

(continued)
SMILES	Mtb H37Rv
Cc1c(NC(=O)C(C)N2C(=O)C3CCCCC3C2=O)c(=O)n(-c2ccccc2)n1C (stereo not drawn)	i
Cc1ccc2nc(NC(=O)COc3ccc(Cl)cc3Cl)sc2c1	i
O=C(Nc1scc(-c2ccc(-c3ccccc3)cc2)c1C(=O)O)c1ccco1	i
CC1CCCCN1S(=O)(=O)c1ccc(C(=O)Nc2ccccc2Cl)cc1 (stereo not drawn)	i
CCOc1ccc(CC(=O)Nc2cccc(Cl)c2C)cc1OCC	i
COC(=O)CN(c1cccc(C(F)(F)F)c1)S(=O)(=O)c1ccccc1	i
Cc1cc(=O)[nH]c(-n2nc(C)c(Oc3ccccc3O)c2C)n1	?
CC(c1ccccc1)N1CC(C(=O)O)CC1=O (stereo not drawn)	i
CCOC(=O)CN1C(=O)C(O)(CC(=O)c2cccnc2)c2ccccc21 (stereo not drawn)	4.2%
COC(=O)c1ccc(NC(=O)CSC2=NCCS2)cc1	1.3%
CC(C)C(=O)Nc1ccc2c(c1)Cc1cc(NC(=O)C(C)C)ccc1-2	i
N#C/C(=C/c1ccc(C#N)cc1)c1ccc(Cl)cc1	i
O=C(O)c1ccc(NS(=O)(=O)c2cccc(Cl)c2)cc1	i
Clc1ccc(CN2CCN(c3ncnc4scc(-c5cccs5)c34)CC2)cc1	20.5µg/mL*
CC(C)OC(=O)c1c(NC(=O)C2CC=CCC2C(=O)O)sc2c1CCCC2 (stereo not drawn)	i

Part of the list above, reformatted:
COC(=O)CN(c1cccc(C(F)(F)F)c1)S(=O)(=O)c1ccccc1
  Mtb H37Rv: i

Cc1cc(=O)[nH]c(-n2nc(C)c(Oc3ccccc3O)c2C)n1
  Mtb H37Rv: ?

CC(c1ccccc1)N1CC(C(=O)O)CC1=O (stereo not drawn)
  Mtb H37Rv: i

CCOC(=O)CN1C(=O)C(O)(CC(=O)c2cccnc2)c2ccccc21 (stereo not drawn)
  Mtb H37Rv: 4.2%

New compounds follow:
SMILES	Mtb H37Rv
COc1cccc(C=O)c1OC(=O)c1ccc(F)cc1	i
CCC(C(=O)Nc1ccccc1C#N)c1ccccc1 (stereo not drawn)	5.2%
O=C(Nc1ccc(Cl)cc1C(=O)N1CCOCC1)c1ccco1	i
C=CCc1cc(OC)ccc1OCCCCNCCOC	i
N#CC1=C(N)SC(N)=C(C#N)C1c1ccc(F)c(Oc2ccccc2)c1	i
CC(NC(=S)Nc1ccc2c(c1)OCO2)C1CCCO1 (stereo not drawn)	i
Cc1cccc(C)c1N(CC(=O)N1CCN(C)CC1)S(C)(=O)=O	i
Oc1ccc(Oc2ncc(Cl)cc2Cl)cc1	3.0%
CC(=O)N(C)c1ccc(OCC(O)Cn2c3ccccc3c3ccccc32)cc1 (stereo not drawn)	?
Cc1nc(N2C(=O)C(O)=C(C(=O)c3cccs3)C2c2cccc(Br)c2)sc1C (stereo not drawn)	i
COc1ccc(N2C(=O)CC(N3CCC(O)CC3)C2=O)cc1 (stereo not drawn)	i
CC(C(=O)c1ccccc1)C(=O)c1ccccc1	i
O=S(=O)(Nc1ccc(Br)cn1)c1cccs1	i
CC(NS(=O)(=O)c1ccccc1)C(=O)Nc1ccc2c(c1)OCO2 (stereo not drawn)	3.0%
CCN(CC)c1nc(N2CCOCC2)nc(N2CCOCC2)n1	i

Given with each value named: part of the list above
> CC(=O)N(C)c1ccc(OCC(O)Cn2c3ccccc3c3ccccc32)cc1 (stereo not drawn)
- Mtb H37Rv: ?

> O=C(Nc1ccc(Cl)cc1C(=O)N1CCOCC1)c1ccco1
- Mtb H37Rv: i

> O=S(=O)(Nc1ccc(Br)cn1)c1cccs1
- Mtb H37Rv: i

> CCN(CC)c1nc(N2CCOCC2)nc(N2CCOCC2)n1
- Mtb H37Rv: i

The listing continues.
SMILES	Mtb H37Rv
O=C(Nc1nc2nc(-c3ccccc3)cc(=O)n2[nH]1)c1cccs1	i
COc1nc(Nc2cccc([N+](=O)[O-])c2)nc(OC)n1	i
CCOc1ccc(NC(=O)c2c(NC(=O)CN3CCN(C)CC3)sc3c2CCC3)cc1	16.4%
COc1ccc(CNS(=O)(=O)c2cccc3nsnc23)cc1	0.6%
COc1ccc(C)cc1NC(=S)Nc1ccccc1-c1ccccc1	i
CCNC(=O)c1ccc(NS(=O)(=O)c2ccccc2)cc1	0.2%
Cn1c(=O)c2c(nc(NCc3ccco3)n2C)n(C)c1=O	3.1%
Cc1cccc(N(CC(=O)Nc2c(C)cccc2C(C)C)S(C)(=O)=O)c1	i
CS(=O)(=O)N(CC(=O)Nc1ccccc1C(=O)NCc1ccco1)c1cccc(F)c1	i
CCn1c(CNC(=O)c2ccc(OC)c(OC)c2)n[nH]c1=S	i
Cc1nnc(SCc2ccc(Br)cc2)[nH]c1=O	i
O=C(NS(=O)(=O)c1ccc(F)cc1)c1ccc(F)cc1	i
O=C(Nc1nc2ccc(S(=O)(=O)N3CCOCC3)cc2s1)c1cccs1	i
O=C(Nc1sc2c(c1C(=O)NCc1cccnc1)CCCC2)c1cccs1	i
Cc1cccc(Nc2[nH]c3cc(C)ccc3c2[N+](=O)[O-])c1	i
Cc1cc(C)c(OCCN2C(=O)NC(C)(C)C2=O)c(Cl)c1	1.1%
Cc1cccc(-n2c(C)nnc2SCC(=O)Nc2ccc(C)c(Cl)c2)c1	i
CC(=O)c1snc(Nc2cc(Cl)ccc2F)c1N	5.6%
O=C(c1cccs1)N(Cc1ccco1)C1CCS(=O)(=O)C1 (stereo not drawn)	i
O=C(c1ccccc1)c1cc(F)c(N2CCCC2)cc1Cl	i
CCOc1ccccc1NC(=S)Nc1ccc(C)c(Cl)c1	i
Cn1c(=O)c2c(nc(SCc3ccccc3F)n2Cc2cccc(F)c2)n(C)c1=O	i
CC(O)CC(=O)NNC(=O)Nc1ccc(Br)cc1Cl (stereo not drawn)	i
CCC(=O)NC(=S)Nc1ccc(C(N)=O)cc1	7.1%
CCOC(=O)c1sc(NC(=S)Nc2ccc(C(=O)N3CCOCC3)cc2)c(C(=O)OCC)c1C	i
Cc1ccc(Cl)cc1N(CC(=O)Nc1ccccc1C(N)=O)S(C)(=O)=O	0.0%
Cc1cc(C)c(NC(=O)c2cccnc2)c(Cl)c1	i
CCN(CC)C(=O)c1sc(NC(=O)c2cc(-c3ccc(C)s3)nc3ccccc23)c(C#N)c1C	?
Cc1cc(C)cc(OCC(=O)O/N=C(\N)c2cccnc2)c1	i
Cc1cc(C)cc(NC(=S)NCCCN2CCCC2=O)c1	i
O=C(c1cc2ccccc2oc1=O)N1CCN(C(=O)C2CCCO2)CC1 (stereo not drawn)	i
CCOC(=O)c1ccc(NC(=O)C(=O)NCCN2CCOCC2)cc1	i
CC(Oc1ccc(Cl)cc1Cl)C(=O)Nc1ccc(-c2cc3ccccc3oc2=O)cc1 (stereo not drawn)	i
COc1ccc(OC)c(S(=O)(=O)n2ccnc2)c1	0.3%
COc1ccccc1/C=C/CN1CCN(CCOCCO)CC1	i
COc1cccc(C(O)c2nc3ccccc3n2C)c1 (stereo not drawn)	i
Cc1ccc(NC(=O)C(C)N2CCCC2)cc1Cl (stereo not drawn)	i
O=C(Nc1cccc2ncccc12)c1ccccc1Cl	i
N#Cc1cnn(-c2ccccc2)c1NC(=O)c1ccccc1F	2.2%
Cc1cc(Br)cc(C)c1NC(=S)NC(=O)c1ccc(F)cc1Cl	2.6%
Nc1c(-c2ccc([N+](=O)[O-])cc2)sc2nc3c(cc12)CCCC3	i
CN1CCN(c2ccc(C(=O)c3ccccc3)cc2F)CC1	i
c1coc(CNCCOc2ccc3ccccc3c2)c1	2.5%
O=C(c1ccccc1F)N1CCN(c2ncccn2)CC1	i
Cc1c(Cl)cccc1N(CC(=O)Nc1ccccc1-c1ccccc1)S(C)(=O)=O	1.8%
Cc1ccccc1NC(=O)COc1ccccc1C	1.8%
C=CCn1c(Cc2csc(N)n2)nnc1SCC(=O)Nc1ccccc1C(F)(F)F	0.0%
CCC(=O)N1c2ccc3ccccc3c2C2C=CCC2C1c1ccc(F)cc1 (stereo not drawn)	1.2%
COc1ccc(C(=O)C(C)Oc2cccc(NC(=O)c3cccc(OC)c3)c2)cc1 (stereo not drawn)	i
CC(C(=O)Nc1ccc(F)c(Cl)c1)N(c1ccccc1)S(C)(=O)=O (stereo not drawn)	i

An excerpt (hit frequency here may not be typical).
